# Source: PubChem BioAssay (National Center for Advancing Translational Sciences (NCATS))
# Methyltransferases – Primary Screen for Target Class Profiling of Small Molecule Inhibitors of Methyltransferases. purified enzyme, MTase-Glo SAH luminescence; hits give low values. calls only at 40 µM. actives 3.9% (n = 25,000); active = -50% or lower on at least one of six enzymes; inconclusive = the cases between; inactive = as a rule above -30% on all six;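 also: enzymes were COMT GAMT GNMT HNMT NNMT and PNMT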
#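 Each enzyme was assayed with SAM and its substrate. SAH formation detected by MTase-Glo luminescence; single-point 40 uM screen[…].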
# Calls only; i = inactive; ? = inconclusive; + = active, no number. % is scaled to controls: 0 for no effect and ±100 for the full control effect. Not all compounds are listed; count on the stated rates, not on these rows.
SMILES,Methyltransferases
C#CC(=O)N(c1ccc(OC)cc1OC)C(C(=O)NCC(=O)OCC)c1cccs1 (centres undefined),i
Cc1ccc(NC(=O)C(=O)NC2CC(C)(C)NC(C)(C)C2)cc1,i
Nc1cc(=O)[nH]c(N)n1,i
Cc1c[nH]c2nccc(Oc3c(F)cc(Nc4cc(Cl)nc(N)n4)cc3F)c12,+
CS(=O)(=O)N1CCc2c(-c3cnc(N)nc3)nc(N3CCOCC3)nc21,i
COc1cc(NC(=O)c2cc(C3CC3)on2)c(OC)cc1Cl,i
COc1cc(N2CCC(N(C)C)CC2)ccc1Nc1ncc(Cl)c(Nc2ccccc2P(C)(C)=O)n1,+
CCCNCCc1ccc(NS(=O)(=O)c2ccc(OC(F)(F)F)cc2)cc1,i
CCOC(=O)C(CCc1ccccc1)NC(C)C(=O)N1C(=O)N(C)CC1C(=O)O (centres undefined),?
COc1cccc(OCCCN)c1-c1cc(Nc2cnc(C#N)cn2)n[nH]1,i
Cn1ncc(Cl)c1-c1cc(C(=O)NC(CN)Cc2ccc(F)c(F)c2)oc1Cl (centres undefined),?
COc1ccc(-c2ccc(-c3cn(C(=O)N4CCCCC4c4ccccc4)nn3)cc2)cc1 (centres undefined),i
COc1ncc(Nc2ncc([C@H](C)N3CCN(S(C)(=O)=O)CC3)cc2-c2nc(C)nc(N)n2)cc1F,i
O=C(NCCCN1CCC2(CC1)OCc1ccccc12)[C@H]1CCCN1Cc1ccccc1,i
Oc1ccc2nc(CN3CCC(Cc4ccccc4F)CC3)[nH]c2c1,i
CC(=O)N1CCN(NC(=O)c2ccc(F)cc2)CC1,i
N#Cc1cc(F)cc(-c2nc(-c3ccccn3)no2)c1,?
c1cc(Nc2cc(C3CC3)[nH]n2)nc(Nc2ccc3nc[nH]c3c2)n1,?
COc1ccc(CCN(C)CCCOc2nsc(-c3ccccc3)n2)cc1OC,+
COc1ccc(NC(=O)c2ccc(-c3ccc(C(=N)N)cc3C)cc2)cc1N1CCN(C)CC1,+
CC(C)c1nnc(-c2ccc(-c3ccccc3)nc2)n1-c1cccc2nonc12,i
Cc1cc(-c2cc(O)ccc2Cl)cc2nnc(Nc3ccc(OCCN4CCCC4)cc3)nc12,?
COc1cc(N2CCOCC2)ccc1Nc1ncc(Cl)c(Nc2ccccc2NS(C)(=O)=O)n1,?
CC1=C(c2ccc(NC(=O)c3c(F)cccc3F)cc2)CN(c2nccs2)CC1,i
CNC(=O)c1ccccc1Nc1cc(Nc2ccc(N3CCOCC3)cc2OC)ncc1C(F)(F)F,?
OCC(O)CN1CCN(c2ccccc2)CC1 (centres undefined),i
COc1cc(Cc2cnc(N)nc2N)c(C(C)C)cc1OC,i
O=C1NC(=O)C(c2cnc3ccccn23)=C1c1cn2c3c(cc(F)cc13)CN(C(=O)N1CCCCC1)CC2,+
Cn1ncc(Cl)c1-c1cc(C(=O)N[C@H](CN)Cc2ccc(F)c(F)c2)sc1Cl,i
CN1CCC(Nc2ncc3ncnc(Nc4ccc(F)c(Cl)c4)c3n2)CC1,?
Cc1c(C(=O)NCCCO)cnn1-c1nc(-c2cccc(C(F)(F)F)c2)cs1,i
Cc1ccc(C(=O)Nc2ccc(CN3CCN(C)CC3)c(C(F)(F)F)c2)cc1C#Cc1cnc2[nH]ncc2c1,i
FC(F)(F)c1ccc(Nc2nc(-c3c(C(F)(F)F)nc4ccccn34)cs2)cc1,i
O=C(Nc1ccc2[nH]c(=O)oc2c1)C(=O)N1CCC(Cc2ccc(F)cc2)CC1,i
CCC(C)c1ccc(NC(=O)Cn2cnc3c2c(=O)n(C)c(=O)n3C)cc1 (centres undefined),?
CCC[C@H](N[C@H]1CCc2cc(F)cc(F)c2C1)C(=O)Nc1cn(C(C)(C)CNCC(C)(C)C)cn1,i

# As a working copy, part of the list above.
SMILES,Methyltransferases
COc1cc(N2CCOCC2)ccc1Nc1ncc(Cl)c(Nc2ccccc2NS(C)(=O)=O)n1,?
CC1=C(c2ccc(NC(=O)c3c(F)cccc3F)cc2)CN(c2nccs2)CC1,i
CNC(=O)c1ccccc1Nc1cc(Nc2ccc(N3CCOCC3)cc2OC)ncc1C(F)(F)F,?
OCC(O)CN1CCN(c2ccccc2)CC1 (centres undefined),i
COc1cc(Cc2cnc(N)nc2N)c(C(C)C)cc1OC,i
O=C1NC(=O)C(c2cnc3ccccn23)=C1c1cn2c3c(cc(F)cc13)CN(C(=O)N1CCCCC1)CC2,+
Cn1ncc(Cl)c1-c1cc(C(=O)N[C@H](CN)Cc2ccc(F)c(F)c2)sc1Cl,i
CN1CCC(Nc2ncc3ncnc(Nc4ccc(F)c(Cl)c4)c3n2)CC1,?
Cc1c(C(=O)NCCCO)cnn1-c1nc(-c2cccc(C(F)(F)F)c2)cs1,i
Cc1ccc(C(=O)Nc2ccc(CN3CCN(C)CC3)c(C(F)(F)F)c2)cc1C#Cc1cnc2[nH]ncc2c1,i
FC(F)(F)c1ccc(Nc2nc(-c3c(C(F)(F)F)nc4ccccn34)cs2)cc1,i
O=C(Nc1ccc2[nH]c(=O)oc2c1)C(=O)N1CCC(Cc2ccc(F)cc2)CC1,i
CCC(C)c1ccc(NC(=O)Cn2cnc3c2c(=O)n(C)c(=O)n3C)cc1 (centres undefined),?

# New compounds follow.
SMILES,Methyltransferases
CCCCOc1ccc(-c2cncc(C(=O)NCc3cccnc3N3CCOCC3)c2)cc1Cl,i
CCCc1cc(C)[nH]c(=O)c1CNC(=O)c1cc(-c2ccc(N3CCN(C(C)C)CC3)nc2)cc2c1cnn2C(C)C,?
Cc1nc(C#Cc2ccnc(Cl)c2)c(C)n1-c1ccc(F)cc1,+
CC(C)(F)CC(NC(c1ccc(-c2ccc(S(C)(=O)=O)cc2)cc1)C(F)(F)F)C(=O)NC1(C#N)CC1 (centres undefined),?
O=c1[nH]c(-c2ccc(C(F)(F)F)cc2)nc2c1CSCC2,i
Cc1nc2c([nH]1)c(=O)n(C)c(=O)n2Cc1ccco1,i
Cc1nc(C)c(-c2ccc(C3CCC(CC(=O)O)CC3)cc2)nc1C(N)=O (centres undefined),i
COc1cc(C(=O)O)ccc1NC(=O)C1NC(CC(C)(C)C)C(C#N)(c2ccc(Cl)cc2F)C1c1cccc(Cl)c1F (centres undefined),?
CCCNCCOc1ccc(NC(=O)c2c[nH]c3c2C(=O)CCC3)cc1F,i
CN(C)CCC[C@@]1(c2ccc(F)cc2)OCc2cc(C#N)ccc21,?
O=C(N[C@H]1CCN(C(=O)c2cc(C(F)(F)F)cc(C(F)(F)F)c2)[C@H](Cc2ccc(Cl)cc2)C1)c1ccnc2ccccc12,i
CCOC(=O)c1cnc2ccc(-c3cncc(NS(=O)(=O)c4ccccc4)c3)cn12,+
CN1CCN(c2nc(-c3ccc(C(=O)NC4(C(=O)NCC#N)CCCCC4)cc3)cs2)CC1,i
Cc1ccc(Nc2c(F)cccc2Cl)c(CC(=O)O)c1,i
O=S(=O)(NCc1cccc2ccccc12)c1cc(Cl)c(Oc2cccc(N3CCNCC3)c2)s1,i
COc1ccc(C(=O)n2c(C)c(Cc3cccc(O[C@@H](C)C(=O)O)c3)c3cc(OC(F)(F)F)ccc32)cc1,?
CN(C)c1nc(Cc2ccc(NC(=O)c3ccc4ccccc4c3)cc2)nc(Cl)c1CC(=O)O,i
CO[C@@H](C(=O)N1Cc2[nH]nc(NC(=O)c3ccc(N4CCN(C)CC4)cc3)c2C1)c1ccccc1,?
O=C(CN1C(=O)C2(CCCC2)NCC1c1cc(F)cc(F)c1)Nc1ccc2c(c1)CC1(C2)C(=O)Nc2ncccc21 (centres undefined),i
CCCSc1nc(N[C@@H]2C[C@H]2c2ccc(F)c(F)c2)c2nnn([C@@H]3C[C@H](OCCO)[C@@H](O)[C@H]3O)c2n1,+
CCOc1ccc(NC(=S)N2CCC(C(O)(c3ccccc3)c3ccccc3)CC2)cc1,i
O=C(NCC(=O)N1CC[C@H](NC2CCC(O)(c3ccc(-c4ncccn4)cn3)CC2)C1)c1cccc(C(F)(F)F)c1 (some centres undefined),i
CC(C)[C@@H]1C(=O)N(S(C)(=O)=O)[C@@H]2CCN(C(=O)/C=C/CN3CCCCC3)[C@H]21,i
O=c1cc(N2CCOCC2)nc2c3ccccc3ccn12,i
Cc1oncc1C(=O)Nc1ccc(C(F)(F)F)cc1,i
CNC(=O)c1ccc(C)c(-n2c(C)cc(OCc3ccc(F)cc3F)c(Br)c2=O)c1,i
CN1CC[C@@H](c2c(O)cc(O)c3c(=O)cc(-c4ccc(C(F)(F)F)cc4Cl)oc23)[C@@H]1CO,?
Clc1ccc2c(c1)C1=NCCN1c1c(-c3noc(C4CC4)n3)ncn1-2,i
CC(=O)c1cnc2ccc(-c3cc(Cl)c(O)c(Cl)c3)nc2c1NC1CCC(CN(C)C)CC1 (centres undefined),+
CN1CCC(=C2c3ccccc3CC(=O)c3sccc32)CC1,i
Cc1cc(-c2ncc(CC(=O)Nc3ccc(-c4cnccn4)cn3)cc2C)ccn1,?
COc1cc(N(C)CCN(C)C)c(N)cc1Nc1nccc(-c2cn(C)c3ccccc23)n1,?
C=C1CCC[C@]2(C)C[C@]3(O)OC(=O)C(C)=C3C[C@@H]12,i
CC(Oc1ccc2[nH]nc(/C=C/c3cnn(CCO)c3)c2c1)c1c(Cl)cncc1Cl (centres undefined),?
CCOc1ccc(Nc2nc(-c3c(C)nc4ccccn34)cs2)cc1,?
CC1CCCCN1S(=O)(=O)c1ccc(N2CCCC2=O)cc1 (centres undefined),i
CC(C)(C)Sc1c(CC(C)(C)C(=O)O)n(Cc2ccc(Cl)cc2)c2ccc(OCc3ccc4ccccc4n3)cc12,+
Cc1ccc(C(=O)C(C)CN2CCCCC2)cc1 (centres undefined),i
O=c1[nH]ccc2cc(OC3CCNCC3)ccc12,i
COc1cc(CCC2=NN=C(NC(=O)c3ccc(N4C[C@@H](C)N[C@@H](C)C4)cc3)C2)cc(OC)c1,?
COc1cccc2c(NCc3ccccc3)nc(-n3c(N)nc4ccccc43)nc12,?
CCCCNc1ncc2c(-c3ccc(S(=O)(=O)N4CCOCC4)cc3)nn(C3CCC(O)CC3)c2n1 (centres undefined),i
Cc1c(NC(=O)OCC2COCCN2)cn2ncnc(Nc3ccc4c(cnn4Cc4cccc(F)c4)c3)c12 (centres undefined),?
CCCCN(CCCC)CC(O)c1cc(Cl)cc2c1-c1ccc(Cl)cc1/C2=C/c1ccc(Cl)cc1 (centres undefined),i
COc1ccc(C(=O)N2CCC(c3noc(-c4ccncc4)n3)C2)cn1 (centres undefined),i
Cc1noc(-c2ccc(-c3ccc(CC(=O)O)cc3)cc2)c1NC(=O)O[C@H](C)c1ccccc1,i
Cc1oc2ccccc2c1CNC(=O)NCc1cccs1,i
CC(C)(F)C[C@@H](N[C@@H](c1ccc(-c2ccc(S(C)(=O)=O)cc2)cc1)C(F)(F)F)C(=O)NC1(C#N)CC1,?
O=C(c1ccc(/C=C/c2n[nH]c3ccccc23)cc1)N1CCNCC1,?
Cn1cnc2c(F)c(Nc3ccc(Br)cc3F)c(C(=O)NOCCO)cc21,i
OC(c1ccc(-c2ccc(CN3CCN(Cc4ccncc4)CC3)cc2)c(F)c1)(C(F)(F)F)C(F)(F)F,i
Cn1ncnc1COc1nn2c(-c3cc(F)ccc3F)nnc2cc1C(C)(C)C,i
Cc1nc(Nc2n[nH]c3c2CN(C(=O)N[C@H](CN(C)C)c2ccccc2)C3(C)C)c2sccc2n1,+
Nc1nc(CC(=O)Nc2ccc(CCNCC(O)c3ccccc3)cc2)cs1 (centres undefined),?
CC(C)(C)c1ccc(-c2nc3c(N4CCN(Cc5ccc6nccnc6c5)CC4)cccc3[nH]2)cc1,?
O=C(Nc1ccc(Oc2ccnc3[nH]ccc23)c(F)c1)c1cccn(-c2ccc(F)cc2)c1=O,i
COc1cc2nc(C3CC3)nc(N3CCN(c4ccccc4OC)CC3)c2cc1OC,?
COc1ccc(F)c(F)c1C(=O)c1cnc(NC2CCN(S(C)(=O)=O)CC2)nc1N,i
O=C(O)CCNc1cc(N2CCc3ccccc3CC2)nc(-c2ccccn2)n1,i
CN(C)CCN(Cc1ccc(-c2ccc(CNCCc3ccccc3)cc2)cc1)C(=O)CCC1CCCC1,?
# (further entries)
SMILES,Methyltransferases
CCC(C)n1ncn(-c2ccc(N3CCN(c4ccc(OC[C@H]5CO[C@](Cn6cncn6)(c6ccc(Cl)cc6Cl)O5)cc4)CC3)cc2)c1=O (some centres undefined),?
Cc1cc(C)c2c(c1)C(N(Cc1cc(C(F)(F)F)cc(C(F)(F)F)c1)c1nnn(C)n1)CCCN2CC1CCC(C(=O)O)CC1 (centres undefined),i
O=C(NC1CCC1)c1ccc(C#Cc2cccc(F)c2)nc1,i
O=C(c1cn(Cc2cncn2Cc2ccc(Br)cc2)cc1-c1cccc2ccccc12)N1CCOCC1,?
CNC(=O)c1cccc(-c2ccc3c(N4CCOC[C@@H]4C)nc(N4CCOC[C@@H]4C)nc3n2)c1,?
O=c1nc(-c2ccccn2)sc2ccccc12,i
COc1cccc(CN(C(=O)CC(C)(C)C)C2CC(C(=O)N3CCNCC3)N(Cc3ccc4c(c3)OCO4)C2)c1 (centres undefined),i
COCCN1CCN(Cc2ccc(-c3n[nH]c4c3C(=O)c3c(NC(=O)NN5CCOCC5)cccc3-4)cc2)CC1,?
CCOC(=O)Nc1ccc(NCc2ccc(F)cc2)nc1N,+
COc1c(O)cc2c(c1O)[C@@H]1O[C@H](CO)[C@@H](O)[C@H](O)[C@H]1OC2=O,+
O=C(Nc1cccc(C(F)(F)F)c1)Nc1cc(S(=O)(=O)NC2CC2)ccc1-c1ccsc1,i
COc1ccc(Sc2ccc(NC(=O)c3ccccc3Cl)cc2C#N)cc1,i
c1ccc2c(Oc3nc(Nc4ccc(N5CCOCC5)cc4)c4ncn(C5CCCCC5)c4n3)cccc2c1,+
COc1ccc2cc(-c3nc(-c4ccc(S(C)=O)cc4)[nH]c3-c3ccncc3)ccc2c1 (centres undefined),i
Cc1cc(CN2CCN(c3c(Br)cnc4nc(-c5ccc(N6CCN(C)CC6)cc5)[nH]c34)CC2)no1,?
CNS(=O)(=O)c1ccccc1Nc1nc(Nc2ccc(N3CCN(C)CC3)cc2OC)ncc1Cl,?
